NS1 function inh – qHTS Assay for Inhibitors of Influenza NS1 Protein Function. S. cerevisiae slowed by influenza A NS1, growth recovery by OD600. Potency, µM (top dose mostly 46.1 µM), for inactives: at the top dose activity, positive = more growth. 270,000 tested, 0.4% active. AID 2326, 2010; active means well fitted rising curve with a large enough effect; inconclusive means small, poorly fitted or top-dose-only effect; inactive means no such curve, though single readings can be large or run the other way; also: nearly all actives have a fitted effect of over 50% in size
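S. cerevisiae expressing influenza A NS1, grown in glucose, washed, then diluted 1:100 into pH 6.0 -URA galactose medium with 23 nl compound. Growth recovery read as OD600; NS1-free strain serves as control.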
2A StopGo – High Throughput Screening for Foot and Mouth Disease Virus Antivirals. Potency, µM (top dose mostly 57.9 µM), inactives show top-dose signal change, negative = less light. AID 1159524, 2015. 410,000 tested, 1.2% active. human cells with a luciferase reporter of 2A StopGo recoding; control for the full effect not named in the record; active = well fitted falling curve with a large enough effect; inconclusive = small, poorly fitted or top-dose-only effect; inactive = no such curve, though single readings can be large or run the other way; tested in HEK293T cells; also: % is scaled to controls: 0 for no effect and ±100 for the full control effect; nearly all actives have a fitted effect of over 45% in size; luciferase light after 4 h
Cruzain inh noDet – qHTS Assay for Promiscuous and Specific Inhibitors of Cruzain (without detergent). Cruzipain (Trypanosoma cruzi), P25779. purified cruzain, Z-FR-AMC fluorescence, no detergent. Potency, µM, without a hit: max response, negative = inhibition, usual class: inhibitors. 200,000 tested, 2.3% active. AID 1476, 2009;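 also: plate controls were enzyme without inhibitor for no effect and buffer without enzyme for full effect; nearly all actives have a fitted effect of over 40% in size; top concentration of the series not given in the record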
Target sequence (P25779 123-467 limits assumed): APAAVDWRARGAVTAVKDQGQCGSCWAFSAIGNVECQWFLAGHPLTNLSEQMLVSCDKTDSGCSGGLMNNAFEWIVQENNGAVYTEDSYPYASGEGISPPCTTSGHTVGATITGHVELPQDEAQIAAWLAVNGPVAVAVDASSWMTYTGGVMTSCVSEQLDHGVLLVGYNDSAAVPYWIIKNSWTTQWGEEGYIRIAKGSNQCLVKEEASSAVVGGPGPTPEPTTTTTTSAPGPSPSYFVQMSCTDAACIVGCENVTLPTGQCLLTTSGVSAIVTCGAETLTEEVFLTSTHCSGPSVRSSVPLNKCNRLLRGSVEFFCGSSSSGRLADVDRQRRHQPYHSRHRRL
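Detergent-free condition (0.00005% Triton X-100) in acetate buffer pH 5.5 with DTT. 1.5 nM enzyme and compound were pre-mixed 15 min, then 2 uM Z-FR-AMC substrate added; reaction progress from fluorescence change between first and third reads (60 s).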
SARS PLpro yeast – qHTS of Yeast-based Assay for SARS-CoV PLP; S. cerevisiae expressing SARS-CoV PLpro, growth rescue; control for the full effect not named in the record; Potency, µM (highest dose often 32.9 µM), for inactives: top-dose activity, positive = growth rescue; 330,000 tested, 0.19% active; active means well fitted rising curve with a large enough effect; inconclusive means small, poorly fitted or top-dose-only effect; inactive means no such curve, though single readings can be large or run the other way; also: 0% is about no effect; nearly all actives have a fitted effect of over 55% in size; growth read by luminescence after 48 h
Cruzain Triton – qHTS Assay for Promiscuous and Specific Inhibitors of Cruzain (with detergent); purified cruzain, Z-FR-AMC fluorescence, 0.01% Triton; AID 1478, 2009; Cruzipain (Trypanosoma cruzi), P25779; Potency, µM, without a hit: max response, negative = inhibition, actives largely listed as inhibitors; 200,000 tested, 0.43% active;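 also: plate controls were neutral wells for no effect and buffer without enzyme for full effect; nearly all actives have a fitted effect of over 40% in size; top concentration of the series not given in the record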
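Cruzain (1.5 nM) preincubated 15 min at RT with compound in 100 mM sodium acetate pH 5.5, 5 mM DTT, 0.01% Triton X-100. Reaction started with 2 uM Z-FR-AMC; AMC fluorescence (ex 360/em 450 nm) change over 60 s gave rate.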
RE007 growth inh – qHTS Assay for Inhibitors of the HIV-1 protein Vpr | 360,000 tested, 0.21% active | Potency, µM (doses to about 92.2 µM), for inactives: top-dose activity change, negative = less growth | S. pombe RE007 Vpr strain, BacTiter-Glo ATP luminescence, 24 h; control for the full effect not named in the record; active = well fitted falling curve with a large enough effect; inconclusive = small, poorly fitted or top-dose-only effect; inactive = no such curve, though single readings can be large or run the other way;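 also: % is scaled to controls: 0 for no effect and ±100 for the full control effect; nearly all actives have a fitted effect of over 50% in size; the assay follows cell death caused by Vpr and the record does not say whether a fall means rescue or toxicity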
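Fission yeast RE007 carrying one integrated HIV-1 vpr copy, seeded at OD 0.01 in PMG+AL medium with 23 nL pinned compound. Grown 24 h at 30 degrees; viability read by BacTiter-Glo luminescence after 5 min.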
LASV entry inh – qHTS for Inhibitors of binding or entry into cells for Lassa Virus | AID 540256, 2011 | Lassa virus pseudotype entry inhibition, cell reporter; control for the full effect not named in the record | Potency, µM (series often up to 37.9 µM), for the others: at the highest dose activity change, negative = inhibition, hits mostly inhibitors | 300,000 tested, 1.2% active; active means well fitted inhibition curve with a large enough effect; inconclusive means small, poorly fitted or top-dose-only effect, or effect the other way; inactive means flat fitted curve, though single readings scatter; tested in HEK293 cells; also: % is scaled to controls: 0 for no effect and ±100 for the full control effect; nearly all actives have a fitted effect of over 50% in size; luciferase read-out
MARV entry inh – qHTS for inhibitors of binding or entry into cells for Marburg Virus. 300,000 tested, 1.8% active. Potency, µM (titrated, usually from 37.8 µM), for inactives: at the highest dose activity change, negative = inhibition, actives largely listed as inhibitors. Marburg virus pseudotyped entry inhibition, cell reporter; control for the full effect not named in the record; about a third of the inactives were read at about 46 µM. AID 540276, 2011; active = well fitted inhibition curve with a large enough effect; inconclusive = small, poorly fitted or top-dose-only effect, or effect the other way; inactive = flat fitted curve, though single readings scatter; tested in HEK293 cells; about a fifth of its hits are not listed in these tables; also: % is scaled to controls: 0 for no effect and ±100 for the full control effect; luciferase read-out
Starred values were filed as active, the others as inactive; ? = inconclusive; / = not tested or not shown; & = joins results of further samples; [ ] = dose if it differs, or a comment. Unless noted, calls follow the shape of the dose curve; as a rule, active = well fitted curve in the direction sought with a large enough effect; inconclusive = small, poorly fitted or top-dose-only effect, or another doubt; inactive = no such curve, though single readings can be large; an effect the other way counts as inactive or inconclusive. Potency is read from the fitted curve at half-maximal effect.

SMILES	NS1 function inh	2A StopGo	Cruzain inh noDet	SARS PLpro yeast	Cruzain Triton	RE007 growth inh	LASV entry inh	MARV entry inh
COC(=O)CSC1=C(C#N)C(c2cccc(F)c2)CC(=O)N1 (stereo unspecified)	-5%	0%	-1%	7%	1.8%	-2%	-29%	?
CC1(C(=O)NCCCNc2ncc(C(F)(F)F)cc2Cl)C=CCN1C(=O)c1ccccc1 (stereo unspecified)	2%	6%	?	0%	-3.6%	-2%	10%	-2%
Cc1nc2cc(NC(=O)Nc3cccc([N+](=O)[O-])c3)ccc2n1C	1%	-30%	/	4%	/	2%	?	?
CCN(CC)S(=O)(=O)c1ccc(N(C)Cc2cccnc2)nc1	5%	?	8%	10%	1.9%	21%	-10%	2%
Cc1ccc(-c2nn3cnnc3c3ccccc23)cc1C	-8%	-27%	/	-9%	/	17%	?	-20%[46.1 µM]
COc1cc(-c2noc(-c3cc4cccc(C)c4oc3=O)n2)cc(OC)c1OC	/	1%	3%	/	-1.0%	/	-2%[46.1 µM]	/
CCc1cccc(OCC2Cn3c(nc4c3c(=O)n(C)c(=O)n4C)O2)c1 (stereo unspecified)	12%	-24%	/	5%	/	-7%	?	-42%[46.1 µM]
O=C1CC2(CCN(C(=O)c3c(F)cccc3Cl)CC2)Oc2ccccc21	/	-27%	/	0%	/	7%	?	2%[46.1 µM]
Cc1noc(/C=C/N(C)C)c1S(=O)(=O)N1CCCC(C(=O)NC2CCCCC2C)C1 (stereo unspecified)	?	-19%	14%	5%	-6.7%	12%	/	1%
O=C(CSc1ccc2c(c1)OCCO2)N1CCN(c2ccccc2O)CC1	/	?	/	1%	/	4%	?	-30%
NS(=O)(=O)c1ccc(NC(=S)NNC(=O)c2cccs2)cc1	4%	4%	/	13%	/	23%	29%	?
COCCNC(=O)Cn1cc(S(=O)(=O)N2CCN(c3ccccc3F)CC2)c2ccccc2c1=O	/	-11%	/	2%	/	11%	?	-4%
COC(=O)c1c(O)ccc(Oc2ccccc2)c1C(=O)OC	8%	-4%	-8%	6%	-4.3%	-13%	6%	?
CCOC(=O)N1CCN(c2c(NC3CCN(Cc4ccccc4)CC3)c(=O)c2=O)CC1	-1%	-10%	-4%	-4%	1.3%	-4%	/	/
Cc1sc2ncnc(OCC(=O)NCC3CCCO3)c2c1C (stereo unspecified)	-7%	-25%	2%	4%	4.1%	12%	10%	1%
COCCCNC(=O)CCCn1c(=O)c2cccn2c2ccccc21	/	-10%	5%	/	-1.4%	/	3%[46.1 µM]	/
Fc1ccc(CNC(=S)Nc2ccccc2Cl)cc1	-18%	30%[activator]	-2%	?	-2.1%	-3%	7%	4%
Cc1ccc2c(=O)cc(C(=O)Nc3sc4c(c3C(=O)NCc3ccco3)CCC4)oc2c1C	/	-25%	-2%	/	0.0%	/	4%[46.1 µM]	?
O=C(Nc1nc2ccc(F)cc2s1)c1nc(S(=O)(=O)Cc2ccccc2)ncc1Cl	/	28µM*	-16%	/	-4.1%	/	4.5µM*	-10%[46.1 µM]
COc1ccc(OC)c(NC(=O)CCCCCn2nnc3ccccc3c2=O)c1	-3%	-24%	/	0%	/	23%	/	/

Complete entries as entered above. Order of screens: NS1 function inh, 2A StopGo, Cruzain inh noDet, SARS PLpro yeast, Cruzain Triton, RE007 growth inh, LASV entry inh, MARV entry inh
CCOC(=O)N1CCN(c2c(NC3CCN(Cc4ccccc4)CC3)c(=O)c2=O)CC1 is entered as -1%, -10%, -4%, -4%, 1.3%, -4%, /, /
O=C(Nc1nc2ccc(F)cc2s1)c1nc(S(=O)(=O)Cc2ccccc2)ncc1Cl is entered as /, 28µM*, -16%, /, -4.1%, /, 4.5µM*, -10%[46.1 µM]

New compounds follow
SMILES	NS1 function inh	2A StopGo	Cruzain inh noDet	SARS PLpro yeast	Cruzain Triton	RE007 growth inh	LASV entry inh	MARV entry inh
CCn1c(=O)c2sccc2n2c(CCC(=O)NCc3ccc(Cl)cc3)nnc12	/	?	3%	/	-3.2%	/	10%[46.1 µM]	13%[46.1 µM]
O=C1NC[C@H](c2ccccc2)N(CCc2cc(C(F)(F)F)cc(C(F)(F)F)c2)C1=O	6%	-21%	/	-3%	/	4%	/	/
COc1ccc(CNC(=O)NCCc2c[nH]c3ccccc23)cc1	-2%	-2%	/	2%	/	1%	/	/
O=C(NC(NC(=S)Nc1c(Cl)cccc1Cl)C(Cl)(Cl)Cl)OCc1ccccc1 (stereo unspecified)	14%	?	20%	-12%	-5.9%	15%	?	?
CCC(=O)N1N=C(c2c(O)n(C)c(=O)n(C)c2=O)CC1c1ccccc1 (stereo unspecified)	2%	-12%	/	0%	/	0%	/	/
Cc1ccccc1NC(=O)C(NS(=O)(=O)c1ccc2c(c1)c(=O)n(C)c(=O)n2C)c1ccccc1 (stereo unspecified)	4%	-8%	?	1%	-0.1%	-8%	/	/
COc1ccc(N2C(=NC(=O)C3CC3)SC3CS(=O)(=O)CC32)cc1Cl (stereo unspecified)	7%	-18%	/	0%	/	6%	/	/
O=C(CCc1ccc(S(=O)(=O)NC2CCCCC2)cc1)NCc1ccccn1	6%	33%[activator]	/	-4%	/	-18%	-1%	4%
CC1CCC(NC(=O)C(Cc2ccccc2)n2cccc2)CC1 (stereo unspecified)	-5%	38%[activator]	/	-6%	/	-10%	/	/
COc1ccc(NC(=O)C2CCCO2)cc1Cl (stereo unspecified)	-4%	18%	-3%	1%	0.0%	11%	11%	4%
CC(C)(O)[C@H]1Cc2cc3ccc(=O)oc3cc2O1	3%	26%	/	-1%	/	-6%	/	/
CCOC(=O)c1[nH]c2ccc(OCC)cc2c1NC(=O)CN1CCN(c2ccccc2)CC1	-4%	?	?	4%	-2.0%	2%	-29%	18%
CCN(C(=O)c1cn(CC)c(=O)c2cc(OC)c(OC)cc12)c1ccccc1F	/	-15%	2%	/	-2.0%	/	9%[46.1 µM]	1%[46.1 µM]
CCCCn1ccnc1C(=O)c1cccc(S(=O)(=O)N2c3ccccc3CC2C)c1 (stereo unspecified)	-7%	-8%	-7%	1%	-5.2%	6%	?	?
CCOc1ccccc1NC1c2ccccc2C(=O)N1Cc1ccco1 (stereo unspecified)	-69%	-14%	-5%	-1%	-5.9%	7%	/	/
COc1cc(/C=N/Nc2nc3ccccc3[nH]2)cc(Br)c1OCC(=O)N(C)C	-16%	-15%	/	-5%	/	-17%	?	-22%
CCOc1ccc(CNC(=O)CCSCc2ccccc2F)cc1OC	/	-14%	/	3%	/	12%	1%	12%
N#Cc1ccc(/C=N/NC(=O)c2cc(-c3cccs3)nc3ccccc23)cc1	-20%	16%	-16%	-19%	-8.7%	-1%	?	6.3µM*
O=C(Cn1cc([N+](=O)[O-])nc1[N+](=O)[O-])N1CCN(c2ccccc2)CC1	1%	?	/	-1%	/	-16%	4%	-7%[46.1 µM]
CCOC(=O)c1sc(C)c2c1NC(c1ccc(N(C)C)cc1)NC2=O (stereo unspecified)	0%	-2%	-7%	3%	-4.0%	23%	1%	3%
COc1ccc(CNC(=O)c2ccc(N3CCCC3)c(NC(=O)NCc3ccc(C)cc3)c2)cc1	/	-22%	-2%	/	-3.8%	/	?	/
Nc1ccc2oc(-c3ccccc3Cl)cc(=O)c2c1O	-2%	65%[activator]	-4%&-9%	-20%	-1.1%&-3.9%	0%	2%	-5%
Cc1onc(-c2c(Cl)cccc2Cl)c1-c1nc2cc(Cl)ccc2c(=O)o1	4%	-17%	/	-1%	/	4%	/	/
Cc1nn(-c2ccccc2)c(C)c1NC(=O)COC(=O)c1ccc(Cl)c(S(N)(=O)=O)c1	/	-9%	/	-2%	/	-17%	3%	-1%
COc1cc2nc(CN3CCN(S(=O)(=O)c4ccccc4C(F)(F)F)CC3)[nH]c(=O)c2cc1OC	/	-14%	/	0%	/	-8%	?	5%[46.1 µM]
COc1nc(NCCc2ccc(OC)c(OC)c2)nc(Nc2ccccc2)n1	-31%	-22%	/	-1%	/	15%	?	-24%
CC(C)c1ccc(NC2CCCN(C(=O)CCN3CCCCO3)C2)cc1 (stereo unspecified)	-13%	-7%	/	-8%	/	-6%	23%	4%
CC(=O)N1CCN(c2cc(N3CCc4ccccc4C3)c(F)cc2[N+](=O)[O-])CC1	9%	-30%	?	-11%	-10%	8%	-27%[14.3 µM]	?
O=C(CSc1nc2c(c(=O)n1-c1ccccc1)SCC2)NCC1CCCO1 (stereo unspecified)	0%	-13%	/	-2%	/	6%	-1%[46.1 µM]	7%[46.1 µM]
O=C(OC1CCOC1=O)c1ccc(NS(=O)(=O)c2cccs2)cc1 (stereo unspecified)	3%	-6%	/	1%	/	2%	1%[46.1 µM]	-2%[46.1 µM]
Cc1ccc(OCC(=O)NC(=S)Nc2ccc3c4c(cccc24)CC3)cc1	3%	-1%	?	-3%	-12%	-7%	4%	?
COc1ccc(CNC(=O)COC(=O)CN2C(=O)C(C)Oc3ccc(C)cc32)cc1 (stereo unspecified)	-7%	-12%	/	-2%	/	5%	-14%	29%[46.1 µM]
CCOc1ccccc1NC(=O)c1c(NC(=O)Cc2ccc(OC)cc2)sc2c1CCC2	/	16%	12%	/	0.2%	/	7%[46.1 µM]	/
CCOC(=O)c1ccc(C(=O)NNC(=O)C2CC=CCC2)cc1 (stereo unspecified)	/	42%[activator]	/	/	/	8%	1%	?
CCCc1cc(-n2ccnc2)n2c(nc3ccccc32)c1C#N	1%	?	-24%	2%	1.7%	5%	-16%	-2%
N#CC1=C(N)SC(N)=C(C#N)C1C1C=CCCC1 (stereo unspecified)	0%	-9%	-11%	-4%	-4.9%	-14%	1%	17%
Cc1ccc(NC(=O)CCNS(=O)(=O)c2ccc(OC(F)(F)F)cc2)c(O)c1	7%	12%	/	1%	/	-6%	-24%	?
O=C(COc1ccc(Cl)cc1)Nc1ccc2c(c1)nc1n2CCOC1	-3%	-22%	/	-2%	/	-8%	19%[46.1 µM]	6%[46.1 µM]

Bioassay records from PubChem.
